MenB inh – blocks the Mycobacterium tuberculosis MenB enzyme; hit rate 0.43% among 100,000; inhibition, %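 (about 12 µg/mL by stock and volumes)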; MenB enzyme assay, absorbance read-out; some hits fall short of the stated cut; AID 540299; P9WNP5;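 active = mean of two replicates above 30%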;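 note: 0% = no compound and 100% = wells with inactive enzyme; the first replicate is given; strong numbers were not always called active; inactives centre near -10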
MbtI inh – MbtI salicylate synthase inhibition; P9WFX0; purified MbtI enzyme, fluorescence intensity read-out; inhibition, %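 (about 17 µg/mL by stock and volumes)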; hit rate 0.89% among 100,000; AID 493033;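 active = above 50% in both replicates, above 80% if mildly self-fluorescent; inactive = the rest, strongly fluorescent compounds included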;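 note: 0% = mean of negative and 100% = mean of positive controls; one replicate is shown; some compounds called inactive have numbers as strong as hits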
Target sequence (P9WFX0 whole entry, looked up): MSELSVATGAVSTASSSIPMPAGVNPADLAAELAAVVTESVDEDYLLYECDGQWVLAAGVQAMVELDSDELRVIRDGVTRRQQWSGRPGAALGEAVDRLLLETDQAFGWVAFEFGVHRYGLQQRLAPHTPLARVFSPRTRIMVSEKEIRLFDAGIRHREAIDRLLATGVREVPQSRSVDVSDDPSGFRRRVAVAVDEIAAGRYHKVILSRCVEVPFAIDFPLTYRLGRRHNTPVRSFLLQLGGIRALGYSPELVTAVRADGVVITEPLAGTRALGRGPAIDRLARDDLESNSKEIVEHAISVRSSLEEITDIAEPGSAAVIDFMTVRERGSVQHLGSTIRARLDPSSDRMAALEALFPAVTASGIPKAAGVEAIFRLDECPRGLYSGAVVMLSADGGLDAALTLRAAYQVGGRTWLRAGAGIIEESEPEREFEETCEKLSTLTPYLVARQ
Polio RdRp inh – inhibitors of poliovirus RNA polymerase binding and polymerization; P03300; poliovirus polymerase elongation, fluorescence polarization; hits give low values; % elongation, % (compound at 16.7 µg/mL); hit rate 0.66% among 150,000; AID 588519; in the data active = % elongation below about 90%; note: some results filed as inactive read as strong as hits
Target sequence (P03300 1749-2209 limits assumed): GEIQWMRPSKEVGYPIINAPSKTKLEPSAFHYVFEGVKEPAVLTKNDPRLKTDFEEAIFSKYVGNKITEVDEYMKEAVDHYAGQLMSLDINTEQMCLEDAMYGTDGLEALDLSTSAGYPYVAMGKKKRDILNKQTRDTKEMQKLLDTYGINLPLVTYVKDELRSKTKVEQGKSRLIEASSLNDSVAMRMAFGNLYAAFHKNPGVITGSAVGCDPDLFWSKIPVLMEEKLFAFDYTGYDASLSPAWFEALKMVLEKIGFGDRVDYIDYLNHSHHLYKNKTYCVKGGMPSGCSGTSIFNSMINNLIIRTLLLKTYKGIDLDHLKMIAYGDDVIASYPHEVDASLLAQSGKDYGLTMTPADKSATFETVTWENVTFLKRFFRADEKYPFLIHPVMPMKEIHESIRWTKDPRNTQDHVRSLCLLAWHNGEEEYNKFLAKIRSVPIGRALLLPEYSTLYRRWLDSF
Polio RdRp inh intensity – also measured in Polio RdRp inh; calls as there; % elongation; measured here: total intensity read-out; formula for this scale not given here;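 total fluorescence in place of polarization; lower means less elongation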
The depositor's hits bear a star; i = inactive; · = not tested or not shown; & = joins results of further samples.

Start of the listing, in advance, 3 compounds:
SMILES	MenB inh	MbtI inh	Polio RdRp inh	Polio RdRp inh intensity
O=C(CSc1ccc2nnc(-c3ccncc3)n2n1)Nc1ccccc1	-22	6	103	106
Cc1ccc(OCCCC(=O)Nc2nccs2)cc1	-6	·	109	102
Cc1oc(-c2ccc(Cl)cc2)cc1C(=O)N1CCc2[nH]c3ccc(F)cc3c2C1	-17	9	103	104

The whole of this part, from the first entry:
SMILES	MenB inh	MbtI inh	Polio RdRp inh	Polio RdRp inh intensity
O=C(CSc1ccc2nnc(-c3ccncc3)n2n1)Nc1ccccc1	-22	6	103	106
Cc1ccc(OCCCC(=O)Nc2nccs2)cc1	-6	·	109	102
Cc1oc(-c2ccc(Cl)cc2)cc1C(=O)N1CCc2[nH]c3ccc(F)cc3c2C1	-17	9	103	104
COc1ccc2c(Cl)c(C(=O)N(C)C3CCN(C)CC3)sc2c1	-1	0	100	107
O=c1c2c(nc3cc(-c4ccccc4)[nH]n13)CCC2	9	-59	99	99
Cc1cccc(C(=O)OC(C)C(=O)N2CCc3ccccc3C2)c1C (configuration not stated)	-6	-1	102	102
COc1cccc2cc(C(C)N(CCCN3CCOCC3)C(=S)Nc3cccc(Cl)c3C)oc12 (configuration not stated)	-25	-7	99	100
N#Cc1c(-c2ccccc2)c(-c2ccccc2)n[nH]c1=O	5	-2	99	96
O=C(O)CCC1CCCCCCCCCCC1	-15	-11	96	103
CCSc1nc2c(c(=O)n1-c1ccccc1)SCC2	-9	0	100	96
CC(C)CCN1C(=O)C(O)(CC(=O)c2cccc(C(F)(F)F)c2)c2ccccc21 (configuration not stated)	·	-10	100	93
O=C(O)CSCC(=O)Nc1cccc(C(F)(F)F)c1	-3	-7	98	106
CC1CC1C(=O)OCC(=O)Nc1ccc2[nH]c(=O)[nH]c2c1 (configuration not stated)	-5	-1	102	103
CC1=C(c2ccccc2)S(=O)(=O)N=C1N1CCCC1	-31	11	104	99
N#CC1(NC(=O)CSc2nc(N)cc(N)n2)CCCC1	-22	-3	102	92
CCOC(=O)/C(C#N)=C(\O)c1ccccc1	4	13	102	103
Cc1ccc2oc(=O)c3cc(C(=O)NCCCN4CCCCCC4)sc3c2c1	-5	107	102	106
CCOc1cc(C(OC(C)=O)OC(C)=O)cc(Cl)c1OC(C)=O	-12	-15	101	102
CC(C)(C)C(=O)Cn1c(=O)n(CCCC(=O)NCc2ccco2)c(=O)c2sccc21	-25	-8	102	105
CC1CCCCC1NC(=O)CSc1nccc(=O)[nH]1 (configuration not stated)	22	-3	99	101
Cc1ccc(S(=O)(=O)/C=C/C#N)cc1	6	79*	101&100	101&100
O=C(N/N=C1\C2CN3CCN(C2)CC1(Cc1ccccc1)C3)c1ccc(F)cc1	-11	-1	103	100
COc1ccc(C(=O)NC(c2ccccc2)c2ccccc2)cc1	-30	·	108	109
O=C(CN1CCN(C/C=C/c2ccccc2)CC1)Nc1cccc(Cl)c1	-1	-5	100	103
O=C(Nc1ccccc1N(C(=O)C1CC1)S(=O)(=O)c1cccs1)C1CC1	-29	-5	104	102
CC(SCc1ccco1)C(=O)O (configuration not stated)	-26	8	101	98
O=C(O)c1cc(-c2cccnc2)nn1-c1cccc(C(F)(F)F)c1	·	-7	102	104
CN(C)C(=O)Cc1coc2ccc3ccccc3c12	-64	12	104	105
N#C/C(=C/c1ccco1)c1ccc2ccccc2c1	-88	-9	104	110
CC1Cn2c(CCc3ccccc3)nnc2S1 (configuration not stated)	5	-8	100	102
CCOC(=O)CSC(c1ccccc1)c1c(C(=O)OC)[nH]c2ccccc12 (configuration not stated)	-41	6	106	105
CCCCn1c2ccccc2c2nnc(SCc3ccccc3)nc21	-6	-4	100	101
Cc1ccc(O)c(C=Nc2cc(C)on2)c1	19	-5	100	101
O/N=C/c1ccoc1	-18	10	·	·
Cc1cc(C(=O)N2CCN(Cc3ccc4c(c3)OCO4)CC2)cs1	-8	-2	103	100
CC(C)N(CCCn1cccc1)C(=S)Nc1cccc(C(F)(F)F)c1	-11	-11	105	104

Single values from the list:
Polio RdRp inh intensity, `O=C(CN1CCN(C/C=C/c2ccccc2)CC1)Nc1cccc(Cl)c1` = 103
MbtI inh, `CC(C)(C)C(=O)Cn1c(=O)n(CCCC(=O)NCc2ccco2)c(=O)c2sccc21` = -8
Polio RdRp inh, `CC1CCCCC1NC(=O)CSc1nccc(=O)[nH]1` (configuration not stated) = 99

More structures:
SMILES	MenB inh	MbtI inh	Polio RdRp inh	Polio RdRp inh intensity
COc1cccc(/C=N/NC(=O)c2ccccn2)c1	-21	8	106	103
CC1CCN(Cc2c(O)ccc3c2O/C(=C\c2ccccc2)C3=O)CC1	-84	18	99	124
CC1CCCC(C)N1C(=O)COC(=O)C1CC1 (configuration not stated)	·	-9	102	105
CC(C)c1ccccc1N=C=S	-3	2	98	103
Cc1cc(C)c2c(n1)sc1c(N3CCN(CCO)CC3)ncnc12	-6	15	99	102
CC(NC(=O)COc1ccc(Oc2ccccc2)cc1)C(=O)O (configuration not stated)	-8	-8	107	112
CN(C)CC(O)COc1cccc2ccccc12 (configuration not stated)	0	·	102	111
Cc1onc(-c2ccccc2)c1CNC(=O)C1CCC1	-10	-7	100	99
CCCCOc1ccc(C2(C(=O)O)CCCC2)cc1	9	-8	103	103
CCOc1ccc(-c2nnc(SC(F)F)n2CCC(=O)OCc2ccc(C#N)cc2)cc1	3	1	103	102
Cc1nn(Cc2c(Cl)cccc2Cl)c(Cl)c1CN1CCN(CC(=O)N2CCCC2)CC1	15	5	87*	80*
CCSc1n[nH]c2nc3ccccc3n12	-28	15	99	99
NC(=O)N/N=C1\CCS(=O)(=O)c2ccc(F)cc21	-25	16	102	108
COc1cccc(OC)c1C(=O)NN1CCCCC1	-7	-4	100	104
CN1C(=O)OC(C)(C)C1=O	-4	-9	100	101
CN1CCCN(C(=O)c2ccc3[nH]c4c(c3c2)CCCC4)CC1	-31	-2	105	106
CCNS(=O)(=O)c1ccc2c(c1)C(=O)c1cc(S(=O)(=O)NCC)ccc1-2	-28	4	104	103
CCOC(=O)CC1Sc2ccccc2N=C1SCCS(=O)(=O)c1ccc(Cl)cc1 (configuration not stated)	-5	0	109	113
Nc1scc[n+]1CC(=O)Nc1ccccc1	·	-3	103	101
O=C1/C(=C\c2ccc(F)cc2)CN(Cc2ccccc2)C/C1=C\c1ccc(F)cc1	-30	·	97	90
Cc1cc2[nH]c(=O)c(=O)[nH]c2cc1S(=O)(=O)N1CCCCC1	-14	39	102	99
COc1ccccc1NC(=O)C(C)O/N=C/c1ccccc1 (configuration not stated)	-18	-7	107	109
NCc1ccc(Oc2ccc(F)cc2)cc1	-18	-2	110	111
Cc1cc(NS(=O)(=O)c2ccc(NC(=O)c3ccco3)cc2)no1	6	8	105	97
CC(=O)Nc1nc(NC(C)=O)nc(-c2ccccn2)n1	-3	-7	100	97
CN1CCCN(Cc2ccccc2)CC1	-61	-1	101	97
CC1(C)OC(=O)C(=Cc2ccc(C#N)cc2)C(=O)O1	-9	-4	101	99
Cn1cnnc1SCc1ccc(C(=O)O)cc1	-7	·	101	98
CCCc1nc(S(=O)(=O)c2ccc(C)cc2)c(NC)o1	8	·	105	107
CSc1ccc(CN2CCN(Cc3cccc(C)c3)CC2)cc1	1	·	92	99
CC(C)N(CC(N)=O)c1nc(-c2cccs2)nc2ccccc12	-8	4	98	103
COc1ccccc1CNC(=O)C(CC(C)C)NC(N)=O (configuration not stated)	-29	-16	104	94
N#C/C(=C\c1cn(Cc2ccccc2C#N)c2ccccc12)C(=O)NCc1cccs1	-3	-2	101	104
Cc1ccc2nc(SCC(=O)N3CCCCC3)c(C#N)cc2c1	41*	0	102	100
Cc1c(C(=O)Nc2ccc3ccccc3c2)oc2ccccc12	-13	·	101	104
O=C(Cn1cc(NC(=O)c2cc(-c3ccc(F)cc3)no2)cn1)NCc1ccco1	17	-2	100	103
O=c1[nH]c(CSc2nnc3ccccn23)nc2ccccc12	1	-5	106	113
COc1ccc(CCNC(=O)c2ccc3c(=O)n(Cc4ccc5c(c4)OCO5)c(=O)[nH]c3c2)cc1OC	0	-1	99	102
COC(=O)c1cc(S(=O)(=O)NCC2CCN(Cc3cccc(Cl)c3)CC2)c[nH]1	-4	2	101	101
COc1ccc(OC)c(C2(O)CSC(=Nc3cccnc3)N2Cc2ccco2)c1 (configuration not stated)	-17	4	103	110
Nc1ccccc1NC(=O)c1nc2ccccc2nc1C(O)C(O)CO (configuration not stated)	-26	-3	104	104
CC(C)(C)c1ccc2cc(C#N)c(C#N)cc2c1	-4	-10	107	98
COc1cc2c(cc1NC(=O)C(C)Sc1nnc(C)c(=O)n1N)oc1ccccc12 (configuration not stated)	-10	21	102	100
Cc1nc2ccccc2[nH]1	11	22	99	95
CC1=C(C(=O)Nc2ccc(C(=O)O)cc2)SCCO1	-7	1	99	101
O=C1CS(=O)(=O)N(Cc2ccccc2)c2ccsc21	-68	11	103	106
O=C(CS(=O)(=O)Nc1ccc(F)cc1Cl)Nc1ccc(F)cc1Cl	8	-17	105	111
CN(C)c1cccc(C(=O)NO)c1	·	-2	89	115
CCN1CCSc2ccc(C(=O)NCCN3CCOCC3)cc21	-7	119	101	101
Cc1nn(C)c(=O)c2ccccc12	-9	5	103	109
CCSc1nc2ccc(N)cc2s1	26	12	101	102
Cc1ccc(CSc2ncnc3c2oc2ccccc23)cc1	2	0	100	99
C=CCn1cnnc1SCc1nnc(-c2ccco2)o1	-25	3	104	110
CCOc1cc(C(F)(F)F)cnc1/C(N)=N/OC(=O)NC	-17	-8	102	106
COCCn1cnc2c(sc3nc4c(cc32)COC(C)(C)C4)c1=O	-48	-2	101	100
COc1cc(/C=C2\SC(=O)N(C)C2=O)ccc1OCC(=O)Nc1ccc(S(N)(=O)=O)cc1	-8	3	103	101
CCOC(=O)c1c(-c2ccco2)csc1NC(=O)COC(=O)CCc1nc2ccccc2c(=O)[nH]1	-34	1	109	116
Cn1nc(C(=O)NCCc2ccc(F)cc2)c2ccccc2c1=O	-30	4	101	100
CCOC(=O)CCc1c(C)nc2ccc(C)cn2c1=O	-12	4	105	108
N#CC(C#N)=NNc1ccc(-n2ccc(C(F)(F)F)n2)cc1	-81	-4	102	104

Five entries drawn at random from the list so far:
SMILES	MenB inh	MbtI inh	Polio RdRp inh	Polio RdRp inh intensity
CCOC(=O)CCc1c(C)nc2ccc(C)cn2c1=O	-12	4	105	108
CCSc1nc2ccc(N)cc2s1	26	12	101	102
CCOc1cc(C(F)(F)F)cnc1/C(N)=N/OC(=O)NC	-17	-8	102	106
N#CC(C#N)=NNc1ccc(-n2ccc(C(F)(F)F)n2)cc1	-81	-4	102	104
COc1cc(/C=C2\SC(=O)N(C)C2=O)ccc1OCC(=O)Nc1ccc(S(N)(=O)=O)cc1	-8	3	103	101

Next entries follow:
SMILES	MenB inh	MbtI inh	Polio RdRp inh	Polio RdRp inh intensity
Cc1ccc2c(CN3CCN(C(=O)C4Cc5ccccc5CN4S(C)(=O)=O)CC3)cc(=O)oc2c1 (configuration not stated)	-1	5	103	101
CCOC(=O)c1oc2ccccc2c1CSc1nc2ccccc2n1CCC#N	-9	9	101	106
CC(Oc1ccccc1)C(=O)NC1CCCCC1 (configuration not stated)	-22	-7	99	102
O=C(COC(=O)c1c(F)cccc1Cl)NCC1CCCCC1	·	-7	102	107
Cn1c(C(F)(F)F)nnc1S(=O)(=O)Cc1ccc(-c2csnn2)cc1	-10	17	104	97
CCC(=O)c1cc2c(cc1N)OCCO2	-42	·	105	98
N#Cc1c(/N=C/c2ccco2)oc(-c2ccccc2)c1-c1ccccc1	-4	9	99	102
O=C(O)C1C2C=CC(C2)C1C(=O)Nc1ccc(C(=O)N2CCCCC2)cc1 (configuration not stated)	25	-8	100	101
S=c1[nH]nc(-c2ccncc2)n1C1CC1	9	60*	·	·
Cc1cccc2c(=O)c(NC(=O)NCC3CC3)c[nH]c12	-17	i	101	99
O=C(CSc1ccccc1)NCc1ccccc1	-12	-12	97	99
CN1CC(=O)N(CCOc2ccccc2)C1=O	-8	-8	103	95
Cn1c(=O)c2c(nc(NC3CCCC3)n2C)n(C)c1=O	10	-3	101	92
S=c1[nH]nc(-c2cccs2)n1CC1CCCO1 (configuration not stated)	-10	21	106	107
FC(F)(F)c1cccc(OCc2nn[nH]n2)c1	-37	-8	101	102
O=C1NC(=O)C(=Cc2ccc(-c3cc(C(=O)O)ccc3Cl)o2)C(=O)N1	-15	12	99	101
O=C(Nc1ccc2c(c1)OCCO2)N1CCC(CN2CCc3ccccc3C2)CC1	-20	-19	103	108
CC1CCCCC1NC(=O)Cn1nc(-c2ccc(Cl)cc2)ccc1=O (configuration not stated)	7	11	103	105
Cc1ccc(S(=O)(=O)CCSCc2csc3ccccc23)cc1	-20	-3	105	99
CCCNC(=O)N1CCN(c2cccc(C(F)(F)F)c2)CC1	-21	-29	103	103
O=C(NCCc1nc2ccccc2[nH]1)c1ccc(Cl)c(Cl)c1	-16	9	104	106
Cc1cc(C(=O)NCc2ccc(F)cc2)n(-c2ccccc2)n1	3	7	101	107
CC(=O)N1CCc2cc(Br)cc(S(=O)(=O)NN3CCN(c4ccc(F)cc4)CC3)c21	-19	0	101	102
CN1/C(=C\C(=O)c2cccc(Cl)c2)C(C)(C)c2ccccc21	-105	-2	102	104
CCCc1cc(=O)n2c3c(sc2n1)C(=O)N(Cc1ccccc1)C3=O	-25	·	108	95
CNC(=O)CNC(=O)Nc1ccccc1OC	-6	3	106	111
